TRPML1 ag = activates the human TRPML1 channel; activation, % (no concentration beside the values); Q9GZU1; 410,000 compounds, 0.12% hits; TRPML1-expressing cells, Ca2+ dye fluorescence, FDSS; host cell line not named in the record; reference of the full effect not given here; in the data active = activation above about 50%; inconclusive = about 30% to 50%; inactive = below about 30%; also: 0% is about no effect; the text of the record puts the active cut at 80%
Target sequence (Q9GZU1 whole entry, looked up): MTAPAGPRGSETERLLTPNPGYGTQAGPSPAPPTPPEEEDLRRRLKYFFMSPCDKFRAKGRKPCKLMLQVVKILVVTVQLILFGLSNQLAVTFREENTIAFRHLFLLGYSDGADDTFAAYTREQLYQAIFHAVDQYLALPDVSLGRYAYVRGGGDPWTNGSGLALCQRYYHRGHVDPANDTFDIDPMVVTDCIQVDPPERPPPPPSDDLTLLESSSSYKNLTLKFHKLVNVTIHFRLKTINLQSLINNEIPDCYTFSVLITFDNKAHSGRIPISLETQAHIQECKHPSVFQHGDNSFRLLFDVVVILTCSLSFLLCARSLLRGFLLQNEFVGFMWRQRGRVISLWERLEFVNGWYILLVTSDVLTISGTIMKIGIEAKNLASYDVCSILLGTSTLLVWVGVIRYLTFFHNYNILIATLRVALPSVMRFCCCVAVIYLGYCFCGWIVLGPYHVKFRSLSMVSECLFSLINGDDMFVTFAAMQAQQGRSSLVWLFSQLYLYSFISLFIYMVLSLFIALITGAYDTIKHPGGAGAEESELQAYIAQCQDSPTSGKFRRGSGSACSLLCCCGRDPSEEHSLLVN
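In this qHTS format, compounds were pin-transferred onto Ca8-dye-loaded TRPML1-DL cells induced with Tet overnight, and intracellular Ca2+ fluorescence was recorded kinetically for 110 s after a 10 s baseline. A subsequent 4uM final 54-4 (EC80) addition followed by a second 110 s read served as the antagonist phase.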
PINK1 modulator = changes PINK1 expression. PINK1 immunofluorescence, high-content cytometry, 24 h. Potency, µM (titrated, usually from 76.6 µM), without a hit: at the highest dose activation (PINK1 increase), usual class: activators. 410,000 compounds, 0.2% hits; active = well fitted activation curve with a large enough effect; inconclusive = small, poorly fitted or top-dose-only effect; inactive = flat fitted curve, though single readings scatter; cell line not stated here;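 also: potency is read from the fitted curve at half-maximal effect; % of control where 0% means no effect; nearly all actives have a fitted effect of over 65% in size; a mitochondrial uncoupler was the plate control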
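PINK1 protein, normally rapidly degraded, was detected by immunofluorescence after 24 hour compound treatment of a stable cell line. Titration data (5 concentrations) came from laser-scanning cytometry, with CCCP-treated wells as controls.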
Starred values were filed as active, the others as inactive; ? = inconclusive; & = joins results of further samples. Not all compounds are listed (hit frequency here may not be typical).

The line under a structure holds: TRPML1 ag | PINK1 modulator
CC(C)Oc1cccc(C(=O)Nc2ccc3oc(-c4cccc(Cl)c4)nc3c2)c1
→ 1.9 | 1.4%
O=C(Nc1c(C(=O)N2CCN(c3ccccc3)CC2)oc2ccccc12)c1ccco1
→ 1.5 | -0.8%
COc1cccc(-c2nc3c(C#N)c[nH]n3c2NC2CCC(C)CC2)c1 (stereo not drawn)
→ 0.1 | 2.0%
O=C(NNc1c(Cl)cccc1Cl)c1sc2ccccc2c1Cl
→ 0.1 | 6.6%
COc1ccc(N2CCN(CCCNC(=O)c3cnn(-c4ccc(C)cc4)c3-n3cccc3)CC2)cc1
→ 0.0 | 3.0%
O=C(NC1CCCCCC1)c1ccc(CS(=O)c2ccc(Br)cc2)o1 (stereo not drawn)
→ -0.9 | -0.1%
COc1ccc2c(c1)c1c(c(=O)n(-c3ccccc3C)c(=O)n1C)n2C
→ -0.2 | -0.2%
CCC1CCCCN1S(=O)(=O)c1cc2c3c(c1)CC(=O)N3CCC2 (stereo not drawn)
→ 0.1 | 1.5%
O=C(CN1CCSc2ccccc21)N1CCN(c2cccc(Cl)c2)CC1
→ 2.4 | -2.0%
Cc1cccc(C(=O)N(Cc2nc(-c3ccc(Cl)cc3)no2)C(C)C)c1
→ 0.9 | 0.7%
Cc1cc2c(cc3c(SCc4ccc(Cl)cc4)nnc(C)n32)o1
→ 0.6 | 1.6%
COc1ccc(-c2noc(CN3CCN(c4ccccc4OC)CC3)n2)cc1OC
→ -0.7 | 2.9%
O=C(CCS(=O)(=O)c1cc2c(cc1Cl)NC(=O)CO2)NCc1ccc(Cl)cc1
→ 0.6 | 9.7%
O=C(OCc1ccccc1)c1ccc(-c2nnn(Cc3ccccc3F)n2)cc1
→ 4.4 | 1.4%
COc1ccc(C(=O)NNc2ncnc3c2cnn3-c2ccc(C)c(Cl)c2)cc1
→ -0.1 | 0.2%
O=C(NCCc1ccccc1)c1ccc2c(c1)N(Cc1ccccc1Cl)C(=O)c1ccccc1S2
→ 3.5 | 1.3%
N#Cc1ccccc1NC(=O)C(=O)NCCc1csc(-c2ccc(C(F)(F)F)cc2)n1
→ 4.6 | -1.1%
CCOC(=O)c1ccc(NC(=O)C2=C(C)Nc3nc(SCc4ccc(Cl)cc4)nn3C2c2ccc(OC)cc2)cc1 (stereo not drawn)
→ 0.2 | 0.9%
COc1ccccc1NC(=O)CSC1=Nc2ccccc2N=C(c2ccc(F)cc2)C1
→ -0.2 | 2.8%
O=C(c1ccccc1Br)N(Cc1ccco1)Cc1ccco1
→ 4.8 | -1.0%
Cc1cccc(CC(=O)NC2CC(=O)N(c3cccc(F)c3)C2)c1 (stereo not drawn)
→ -0.5 | 4.7%
COc1ccccc1CNc1nccn(-c2ccccc2)c1=O
→ -0.9 | 3.8%
CCOC(=O)c1c(C)[nH]c(CCC(=O)Nc2ccccc2C(=O)OC)c1C
→ 4.5 | -0.3%
COc1ccc(-c2c(C)c3ccc(O)c(CN4CCN(CCO)CC4)c3oc2=O)cc1OC
→ -0.3 | -0.9%
Cc1cc2nnc(SCC(=O)Nc3ccc(F)c(Cl)c3)n2c2ccccc12
→ 0.5 | -5.1%
CCOc1ccc(C(=O)Nc2ccc(-c3cc4ccccc4oc3=O)cc2)cc1Br
→ 0.3 | 1.2%
COc1ccccc1N1CCN(C(=O)c2cc3c(=O)oc4ccccc4c3s2)CC1
→ 0.0 | 3.0%
COc1cccc(/C=C/c2nc3ccccc3nc2/C=C/c2cccc(OC)c2OC)c1OC
→ 1.3 | 0.7%
C=C(C)CSc1nc2sc3c(c2c(=O)n1Cc1ccccc1)CC(C)(CC)OC3 (stereo not drawn)
→ -0.1 | -0.8%
CCc1c(C)sc2c1CCN(C(=O)Nc1ccccc1C(F)(F)F)C2c1ccccc1 (stereo not drawn)
→ 3.2 | 4.2%

Continued.
The line under a structure holds: TRPML1 ag | PINK1 modulator
CC(C)CC(=O)NCC(c1ccc2c(c1)OCO2)N1CCN(c2ccccc2F)CC1 (stereo not drawn)
→ -0.4 | -0.8%
N#Cc1ccccc1CSc1nnc(-c2ccccc2)o1
→ 1.3 | -0.2%
Cc1ccc(C)c(S(=O)(=O)c2nnn3c2nc(Nc2ccc(C)c(C)c2)c2ccccc23)c1
→ 0.2 | 2.5%
COC(=O)c1ccc(OCC2c3cc(OC)c(OC)cc3CCN2C(=O)Cc2ccccc2)cc1 (stereo not drawn)
→ 3.0 | -3.1%
COc1ccc2cc(CNc3ccc(C)cc3)c(=O)n(CC(=O)Nc3cccc(Cl)c3C)c2c1
→ 2.6 | 1.0%
O=C(CS(=O)(=O)c1cccc2nsnc12)N1CCN(c2ccc(F)cc2)CC1
→ 1.6 | -3.8%
O=C(NCc1ccc(Cl)cc1)C(=O)NCC(c1cccnc1)N1CCN(c2ccccc2)CC1 (stereo not drawn)
→ 0.3 | -0.8%
CCOc1cc2sc(N3CCC(C(=O)Nc4cc(C)cc(C)c4)CC3)nc2cc1Br
→ -0.2 | 1.4%
COc1ccccc1CNC(=O)C(=O)NCC(c1cccs1)S(=O)(=O)c1ccccc1 (stereo not drawn)
→ 0.1 | 0.4%
O=C(CN1C(=O)C2(SCC(=O)N2c2ccccc2)c2ccccc21)Nc1ccccc1C(F)(F)F (stereo not drawn)
→ 1.1 | -2.9%
COc1ccccc1CCNC(=O)Cc1c(C)c2cc3c(C(C)(C)C)coc3c(C)c2oc1=O
→ 1.8 | -0.2%
Cc1cccc2nc(-c3ccccn3)c(Nc3ccc(F)cc3)n12
→ 0.0 | 11%
Cc1ccc(/C=C(\C#N)c2nc(-c3ccc(-c4ccccc4)cc3)cs2)cc1
→ -1.0 | 2.3%
CCOC(=O)c1sc2ncn(CC(=O)Nc3ccc(C)cc3C)c(=O)c2c1C
→ -0.2 | 1.1%
CCCCn1cc(S(=O)(=O)c2ccccc2)c(=O)c2cc(F)c(N3CCN(CCC)CC3)cc21
→ 0.2 | 0.8%
COc1ccc(N2CCN(C(c3ccccc3)c3sc4nc(-c5ccco5)nn4c3O)CC2)cc1 (stereo not drawn)
→ 0.9 | 0.5%
Cc1cc(C)cc(C(=O)N2CC(=O)Nc3ccc(C)cc3C2c2ccccc2)c1 (stereo not drawn)
→ -1.2 | 8.5%
COc1ccc(-c2noc(CSc3nnc(-c4ccncc4)n3-c3ccc(C)c(C)c3)n2)cc1
→ 1.1 | 2.0%
CC(=O)c1ccc(NS(=O)(=O)c2ccc3[nH]c(=O)[nH]c3c2)cc1
→ 1.4 | -1.2%
Cc1ccc(CCNC(=O)c2cccc(Nc3nc4ccccc4nc3-n3nc(C)cc3C)c2)cc1
→ 0.5 | -0.3%
COc1ccc(F)cc1NC(=O)C1CCN(c2nc(-c3ccc(OC)c(OC)c3)no2)CC1
→ -0.2 | -0.6%
COc1ccc(/C=C/C(=O)Nc2sc3c(c2C(N)=O)CCCC3)cc1
→ -0.5 | 0.4%
CCc1ccccc1NC(=O)N1CCc2c([nH]c3ccccc23)C1c1ccc(C)cc1 (stereo not drawn)
→ 0.5 | 1.4%
CCC(=O)OC1=CN(Cc2ccccc2)S(=O)(=O)c2ccccc21
→ 0.2 | -1.1%
O=C(Nc1cccc(C(=O)OCc2cc(=O)n3c4c(sc3n2)CCCC4)c1)c1ccccc1
→ 0.7 | -0.2%
O=C(Nc1ccc(C(F)(F)F)cc1)C1(c2cccs2)CCOCC1
→ -0.2 | 4.3%
CCc1ccccc1N1CC(c2nc3ccccc3n2CCOc2ccc(Cl)c(C)c2)CC1=O (stereo not drawn)
→ 4.3 | ?
CC(NC(=O)c1cc2c(=O)n3ccccc3nc2n(C(C)C)c1=N)c1ccccc1 (stereo not drawn)
→ -1.1 | 0.5%
Cc1ccc(NC(=O)c2c(C)oc3ccc(O)c(CN4CCOCC4)c23)c(C)c1
→ -1.1 | 3.0%
O=C(NC1CC(=O)N(c2cccc(F)c2)C1)c1ccc(Br)o1 (stereo not drawn)
→ -0.3 | -0.2%

(list continues)
The line under a structure holds: TRPML1 ag | PINK1 modulator
CCN(CC)S(=O)(=O)c1ccc2c(c1)N(CC(=O)Nc1ccc(F)cc1F)C(=O)C1CCCN21 (stereo not drawn)
→ -0.1 | -0.4%
COc1ccc(N2CC(NC(=O)c3cc4ccccc4o3)CC2=O)cc1OC (stereo not drawn)
→ 0.7 | -0.1%
O=[N+]([O-])c1ccc2c(c1)C=C/C2=C\c1ccccc1
→ -0.2 | 0.7%
COc1ccc(NC(=O)CCS(=O)(=O)c2nc(-c3ccc4c(c3)OCO4)cc(C(F)(F)F)n2)cc1OC
→ -0.9 | -0.7%
COc1ccc(CCNC(=O)c2ccc3c(c2)N(Cc2cccc(Cl)c2)C(=O)CS3)cc1OC
→ 2.6 | 0.2%
Cc1ccc(CN(C(=O)COc2c(C)cccc2C)C2CCS(=O)(=O)C2)o1 (stereo not drawn)
→ 0.8 | 0.9%
O=c1oc2ccc(Br)cc2cc1-c1csc(-c2ccccc2)n1
→ -0.4 | -1.2%
CCCSc1ncc(Cl)c(C(=O)Nc2sc3c(c2C(=O)OC)CCCC3)n1
→ 0.3&0.0 | 1.4%&2.6%
CC(=O)CSc1nc(-c2ccccc2)[nH]c1S(=O)(=O)c1ccc(C)cc1
→ -0.1 | -1.2%
O=C(NCc1ccccc1)C1CCN(S(=O)(=O)c2ccc3c(c2)CCCN3C(=O)C2CCC2)CC1
→ 1.0 | 0.2%
O=C(O)c1ccc2nc(-c3cc4cc(Cl)ccc4oc3=O)[nH]c2c1
→ 0.1 | -0.5%
CCCc1cc(=O)oc2c3c(ccc12)OCN(Cc1ccccc1OC)C3
→ 3.7 | -1.8%
COc1cccc2c1cc1c(=O)n(CC(=O)N3CCN(c4cc(Cl)ccc4C)CC3)nc(C)n12
→ -0.3 | 0.4%
CCOC(=O)c1sc(NC(=O)c2cc3nc(-c4ccc(Br)cc4)cc(C(F)(F)F)n3n2)c(C(=O)OCC)c1C
→ 0.8 | 1.6%
Cc1ccc(Cl)cc1N1CCN(C(=O)c2cc(S(=O)(=O)N3CCC(C)CC3)cn2C)CC1
→ 2.8 | 0.4%
O=C(NCC(c1ccco1)S(=O)(=O)c1cccs1)c1ccc(F)c(F)c1 (stereo not drawn)
→ -0.6 | -0.9%
CCc1ccccc1NC(=O)CN1C(=O)C2CCCN2c2ccc(S(=O)(=O)N(CC)CC)cc21 (stereo not drawn)
→ -0.8 | 2.3%
CCC(=O)N1c2ccccc2CC1C(=O)NCCN1CCN(c2cccc(C)c2C)CC1 (stereo not drawn)
→ -0.1 | 1.3%
O=C(Nc1ccc(-n2nncc2-c2ccccc2)cc1)c1ccccc1
→ -0.3 | 8.3%
COc1ccc(-n2cc(-c3ccccc3)c3c(N4CCCC(C)C4)ncnc32)cc1 (stereo not drawn)
→ 0.2 | 2.5%
COc1ccc(-n2c3c(cc(-c4nc(-c5ccc(C)cc5)cs4)c2=O)C(=O)CC(C)(C)C3)cc1
→ 0.2 | 0.5%
Cc1ccccc1OCC(=O)Nc1ccc(S(=O)(=O)Nc2ncccn2)cc1
→ 0.0 | 0.2%
O=S(=O)(c1ccc2ccccc2c1)N1CCN(c2nc(-c3ccccc3)nc3ccccc23)CC1
→ -0.7 | -0.3%
CCC(C)n1c(=N)c(C(=O)NC2CCCCC2)cc2c(=O)n3cc(C)ccc3nc21 (stereo not drawn)
→ -0.9 | 0.4%
Fc1ccc(-c2cn3cc(Cc4ccccc4)sc3n2)cc1
→ 0.5 | 5.4%
Cc1cc(=O)oc2c3c(ccc12)OCN(Cc1ccccc1Cl)C3
→ 1.0 | -2.0%
Cc1ccc(NS(=O)(=O)c2ccc3[nH]c4c(c3c2)CCCC4)c(C)c1
→ 3.2 | ?
Cc1ccc(-c2nnc(SCC(=O)c3ccc(Cl)cc3)n2-c2ccccc2)cc1
→ 3.0 | -0.8%
CCCC1=Nc2cc(C(=O)NC3CCCCC3)ccc2Sc2ccc(C)cc21
→ 2.2 | 2.4%
Cc1cc(C)c2c(CC(=O)Nc3nnc(C(C)C)s3)coc2c1
→ 0.4 | 9.5%

(continued)
The line under a structure holds: TRPML1 ag | PINK1 modulator
CC(=O)c1ccc(NC(=O)C2CCN(S(=O)(=O)c3ccc4[nH]c5c(c4c3)CCCCC5)CC2)cc1
→ 0.6 | -0.5%
Cc1ccc(-c2noc(-c3ccc(NCc4cccnc4)c([N+](=O)[O-])c3)n2)cc1
→ 0.0 | 0.0%
Cc1ccc(-n2c(SCc3nc(-c4ccc(Cl)cc4)no3)nnc2-c2ccncc2)cc1
→ 1.5 | 0.3%
COc1cccc(NC(=O)CSc2nnc3[nH]c(=O)cc(-c4ccccc4)n23)c1
→ 0.1 | 28%
Cc1c(C(=O)N(C)C)sc2c1c(=O)n(-c1ccc(F)cc1)c(=O)n2CC(=O)N(C)c1ccccc1
→ -0.1 | 1.7%
CC1CCN(C(=O)CN2c3ccc(C(C)C)cc3-c3ccccc3S2(=O)=O)CC1
→ 0.7 | 1.7%

Retrieved by compound from the entries so far, four records:
The line under a structure holds: TRPML1 ag | PINK1 modulator
Cc1ccc(-n2c(SCc3nc(-c4ccc(Cl)cc4)no3)nnc2-c2ccncc2)cc1
→ 1.5 | 0.3%
Cc1ccc(-c2noc(-c3ccc(NCc4cccnc4)c([N+](=O)[O-])c3)n2)cc1
→ 0.0 | 0.0%
CC1CCN(C(=O)CN2c3ccc(C(C)C)cc3-c3ccccc3S2(=O)=O)CC1
→ 0.7 | 1.7%
CC(=O)c1ccc(NC(=O)C2CCN(S(=O)(=O)c3ccc4[nH]c5c(c4c3)CCCCC5)CC2)cc1
→ 0.6 | -0.5%

Source: PubChem (National Center for Advancing Translational Sciences (NCATS))
